Bioassay records as filed in PubChem.
VDR inhibitor = Inhibitors of the vitamin D receptor (VDR): qHTS. Vitamin D3 receptor (Homo sapiens), P11473. VDR-SRC2-3 peptide fluorescence polarization, 2 h. Potency, µM, without a hit: max response, negative = inhibition, usual class: inhibitors. 400,000 compounds, 0.93% hits. AID 504847, 2011; active = well fitted inhibition curve with a large enough effect; inconclusive = small, poorly fitted or top-dose-only effect, or another doubt; inactive = no such curve, though single readings can be large or run the other way; also: series mostly up to about 120 µM
Target sequence (P11473 whole entry, looked up): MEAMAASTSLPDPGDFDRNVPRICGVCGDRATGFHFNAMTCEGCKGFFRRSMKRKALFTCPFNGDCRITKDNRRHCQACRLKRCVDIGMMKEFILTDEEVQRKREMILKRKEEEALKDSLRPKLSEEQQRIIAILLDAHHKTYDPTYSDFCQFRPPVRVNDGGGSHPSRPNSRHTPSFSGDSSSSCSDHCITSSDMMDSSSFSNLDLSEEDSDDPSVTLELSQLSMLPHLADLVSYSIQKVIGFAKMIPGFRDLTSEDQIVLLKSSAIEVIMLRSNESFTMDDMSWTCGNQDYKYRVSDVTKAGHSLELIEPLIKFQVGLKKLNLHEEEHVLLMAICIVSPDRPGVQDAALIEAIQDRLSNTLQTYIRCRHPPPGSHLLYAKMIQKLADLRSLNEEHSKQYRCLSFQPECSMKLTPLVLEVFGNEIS
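VDR–SRC2-3 interaction, FP format. Cmpds 23 nl via pintool, brief spin, 2 h ambient incubation.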
* = called active by the depositor; ? = inconclusive. % is scaled to controls: 0 for no effect and ±100 for the full control effect; potency is read from the fitted curve at half-maximal effect.

SMILES,VDR inhibitor
COc1ccc(N(C)S(=O)(=O)c2cccc(C(=O)NC3=NCCS3)c2)cc1,-9.5%
CCCCN(CC)CCCNC(=O)c1cn(-c2ccc(OC)cc2)c(=O)c2ccccc12,-7.3%
Fc1ccccc1N1CCN(Cc2nnc(-c3ccc4c(c3)OCO4)o2)CC1,-13.5%
Cc1cc(C(=O)Nc2nnc(C(F)(F)F)s2)no1,9.3%
C=CCN1CCN(c2ccncc2S(=O)(=O)N2CCOCC2)CC1,12.3%
CC(=O)Nc1sc(N/N=C\c2ccccc2Cl)nc1-c1cccs1,?
Cc1nn(-c2ccc(F)cc2)c2nc(N)c(C#N)c(-c3ccc(O)c(O)c3)c12,-15.4%
Cc1ccc(NC(=O)c2cc(-c3ccc(C)o3)nc3ccccc23)cc1,-17.2%
COc1ccccc1NC(=O)c1cc(S(=O)(=O)NCc2ccccc2)ccc1F,-12.0%
CO[C@@H]1[C@@H](OC2OC(C)C(OC3CC(C)(O)C(OC(=O)CC(C)C)C(C)O3)C(N(C)C)C2O)[C@@H](CC=O)C[C@@H](C)C(=O)/C=C\C2O[C@H]2C[C@@H](C)OC(=O)C[C@H]1OC(C)=O (stereo not given in full),-14.4%
Cc1c(C(=O)Nc2ccc(N3CCOCC3)cc2)oc2ccccc12,-4.5%
CCOC(=O)c1oc2cc(O)cc(O)c2c(=O)c1OCc1ccccc1,-21.6%
CCNC(=S)N/N=C1\C(=O)c2cccc3cccc1c23,-4.2%
COc1ccc(NC(=O)/C(C#N)=C\c2ccc(N3CCOCC3)o2)cc1,-5.0%
CC(C)C[C@H]1CNC(=S)N1CC1CCN(CCCCc2ccccc2)CC1,-15.7%
CCN(CC)C(=O)CN1CCN(c2ncccn2)CC1,15.2%
COc1ccc(/C=C/C(=O)OCc2nc3ccccc3c(=O)[nH]2)c(OC)c1,13.3%
O=c1cc(-c2ccccc2)oc2ccc(Br)cc12,-18.8%
O=C(OC1Cn2c(=O)ccc(=O)n2C1)c1ccccc1,-5.4%
O=C(N/N=C/c1ccoc1)c1ccc([N+](=O)[O-])cc1,-8.5%
O=C(c1cc2ncc(Br)cn2n1)N1CCCCC1,-12.9%
Nc1ccc2cc3ccccc3cc2c1,-20.7%
COc1ccc(C(=O)C(C)OC(=O)CN2C(=O)c3ccccc3C2=O)cc1 (stereo not given),3.6%
O=C(/C=C/c1ccccc1Cl)OCC(=O)c1ccc[nH]1,7.8%
O=C(Nc1ccc(Cl)cc1)C1CCN(C(=O)c2cccs2)CC1,-2.9%
CC(=O)c1ccc(NC(=O)C(C)Sc2ccccn2)cc1 (stereo not given),13.0%
COc1ccc(CCC(=O)Nc2ncc(C)s2)cc1OC,0.8%
O=C(COC(=O)c1ccccn1)NCc1ccc(Cl)cc1Cl,0.4%
COc1ccc(NC(=O)NC(=O)c2ccccc2)cc1,2.0%
Cc1ccc(F)cc1CNC(=O)c1cc(COc2ccc3ncccc3c2)on1,12.5%
CCOC(=O)C1=C(c2ccccc2)NC(SCC)=C(C#N)C1c1cccnc1 (stereo not given),-0.1%
COc1ccc(CCNC(=O)C2CCCN(S(=O)(=O)c3ccc(OC)cc3)C2)cc1 (stereo not given),7.0%
O=C(c1cccc([N+](=O)[O-])c1)c1ccccn1,2.8%
COC(=O)c1cc2c(cc1NC(=O)c1cnn(-c3ccccc3)c1-n1cccc1)OCO2,-5.5%
CCC(=O)N1CCc2cc(S(=O)(=O)NCCC(=O)N3CCc4ccccc4C3)ccc21,1.1%
COC(=O)C1N[C@@H]([C@@H](NC(=O)COc2ccccc2)C(=O)NCc2ccsc2)SC1(C)C (stereo not given in full),3.9%
CCOC(=O)/C(C#N)=N/Nc1c(S(=O)(=O)Cc2ccco2)csc1C(=O)OC,3.6%
COCC1CCCN(C(=O)c2ccc3nc(Cc4cccc(Cl)c4)oc3c2)C1 (stereo not given),15.1%
CCc1cccc(CC)c1NS(=O)(=O)c1ccc2c(c1)CCN2C(=O)C1CC1,-23.3%
CC(C)(C)CN1CCNC(=O)C1CC(=O)NCCc1ccccc1C(F)(F)F (stereo not given),11.9%
CC(=O)c1cccc(N(CC(=O)NC2CCCC2)C(=O)c2csnn2)c1,17.4%
Clc1cccc(OCCN2CCCC2)c1,-15.7%
Cc1cc(S(=O)(=O)Nc2cccc(-c3ccc(N4CCOCC4)nn3)c2)c(C)cc1Cl,-2.7%
CC(C)c1ccc(C2NC(=S)NC3=C2C(=O)CCC3)cc1 (stereo not given),-14.9%
C=CCc1c(C)nc(SCCC)[nH]c1=O,-5.9%
CCc1ccc(-c2cc(C)no2)cc1S(=O)(=O)N1CCC(C)CC1,-3.3%
CCC1CCCCN1CCCNC(=O)CNC(=O)c1nn(-c2ccc(OC)cc2)c(=O)c2ccccc12 (stereo not given),-15.3%
Cc1nc(SCC(=O)NCc2ccccc2)c2c(=O)n(C)c(=O)n(C)c2n1,-14.1%
COc1ccc(/C=N/NC(=O)C(O)(c2ccccc2)c2ccccc2)cc1OC,?
COc1ccccc1/C=C/C(=O)Nc1cccnc1Cl,-9.2%
CCOC(=O)c1sc(NC(=O)C2CC(=O)N(c3ccccc3OC)C2)nc1C (stereo not given),2.6%
COc1cccc(NC(=O)NC2(C(=O)N3CCC(O)CC3)CCCCC2)c1,-1.0%
CC(C)[C@H]1COCCS(=O)(=O)N1Cc1ccccc1-c1ccc(C(C)(C)C)cc1,-4.4%
C=CCc1cccc(/C=N/NC(=O)c2ccccc2OC)c1O,?
COc1ccccc1NS(=O)(=O)c1ccc(O)c(C(=O)OCC(=O)N2CCc3ccccc32)c1,8.7%
Cc1ccc2[nH]c(SCC(=O)N3CCOCC3)nc2c1C,-17.0%
CC(=O)COc1ccc2c(C)c(-c3ccccc3)c(=O)oc2c1,-16.9%
COc1ccccc1NC(=O)C1=C(C)Nc2nc3ccccc3n2C1c1cccs1 (stereo not given),-29.9%
N#Cc1cccc(NC(=O)c2ccc3c(c2)N(Cc2cccc(Cl)c2)C(=O)c2ccccc2S3(=O)=O)c1,5.6%
CCOC(=O)C1Nc2ccc(Br)cc2C2C=CCC12 (stereo not given),?

(cont.)
SMILES,VDR inhibitor
Cc1ccc(NC(=O)COc2ccc(C3SCCS3)cc2)cc1,-4.6%
CCOC(=O)[C@H]1[C@H]2COc3ccc(OC)cc3[C@@H]2N2C(=O)CN(Cc3ccc(C)cc3)C(=O)[C@@]12C,-6.9%
CN(C)CCNC(=O)/C(=C/c1cccc([N+](=O)[O-])c1)NC(=O)c1ccccc1,1.6%
O=C(N=C1SCC(=O)N1c1ccccc1)c1ccco1,4.3%
O=C(O)c1cc(-c2ccccc2)nn1CC1CC(c2cccnc2)=NO1 (stereo not given),-14.4%
CCn1c(SCC(=O)NC2CCCCC2)nnc1-c1ccccc1F,2.2%
COc1cccc(Cn2cc(C(=O)c3ccc(Cl)cc3)c(=O)c3ccccc32)c1,4.4%
CCOC(=O)C1=C(O)/C(=C\c2cccc(OC)c2)N=C1C,-5.7%
Cc1ccc2nc(NC(=O)COc3ccc(F)cc3)sc2c1,8.4%
NC(=O)CC12CC3CC(C1)CC(CC(N)=O)(C3)C2,-11.7%
COc1ccc(-n2nc(C(=O)O)nc2-c2ccccc2)cc1,5.1%
COc1ccc(OCCSc2nnnn2C2CCCCC2)cc1,-2.4%
CCOC(=O)Cc1csc(NC(=O)CSc2nnc(-c3ccc(F)cc3)o2)n1,-4.4%
CCOC(=O)Cc1cnc(NC(=O)CSc2nc(N)cc(=O)[nH]2)s1,?
CCc1ccccc1NC(=O)CSc1nnc(-c2ccc(OC)cc2)s1,6.4%

3 compounds already listed, sorted by their value in VDR inhibitor, high to low:
SMILES | VDR inhibitor
Cc1ccc2nc(NC(=O)COc3ccc(F)cc3)sc2c1 | 8.4%
COc1cccc(Cn2cc(C(=O)c3ccc(Cl)cc3)c(=O)c3ccccc32)c1 | 4.4%
Cc1ccc(NC(=O)COc2ccc(C3SCCS3)cc2)cc1 | -4.6%

Later entries.
SMILES,VDR inhibitor
Cc1cc(C)n2c(SCC(=O)N(CC(C)C)c3c(N)n(CC(C)C)c(=O)[nH]c3=O)nnc2n1,-22.7%
CC(C)CCNC(=O)NC(=O)CSc1nnc(-c2ccccc2F)n1N,4.1%
Cc1ccc(-n2ncc3c(NCc4ccccc4)ncnc32)cc1C,-1.9%
CC(C)C[C@H](NC(=O)C1CCC(CNC(=O)[C@@H]2CCCN2C(=O)OC(C)(C)C)CC1)C(=O)O (stereo not given in full),2.8%
O=C(O)C1CC=CCC1C(=O)c1ccccc1 (stereo not given),-18.5%
CC(C)(C)c1cc(CP(=O)(c2ccccc2)c2ccccc2)cc(C(C)(C)C)c1O,-18.4%
FC(F)Oc1cccc2cccnc12,16.1%
Cc1ccc(S(=O)(=O)N(C)c2ccc(C(=O)Nc3cccc(C)n3)cc2)cc1,0.1%
COc1ccc(C(=O)CSc2nc(=O)n(Cc3cccnc3)c3c2CCC3)cc1,8.6%
CC1CCN(c2ccc3c(c2)S(=O)(=O)c2cccc(C(=O)NC4CC4)c2C3=O)CC1,5.0%
Cc1cccc(NS(=O)(=O)c2cc3c(cc2C)n(C)c(=O)c(=O)n3C)c1,-12.0%
COc1ccc2ccc(O)c(CN(C)CC(=O)Nc3ccccc3C(F)(F)F)c2c1,?
COc1ccc(CSc2nc3ccccc3c(=O)[nH]2)cc1F,-11.0%
CCN(C(=O)CN1C(=O)/C(=C/c2ccc(F)cc2)SC1=S)C1CCS(=O)(=O)C1 (stereo not given),-10.5%
O=C(CSc1nnc(CCc2nc3ccccc3[nH]2)n1-c1ccccc1)NCc1ccco1,-13.2%
CC(=O)Cc1nsc(NC(=O)c2ccc(-c3ccc(Cl)cc3Cl)o2)n1,15.2%
COc1ccc(NC(=O)CN(C)C(=O)CC2CCCC2)cc1,-9.0%
COc1cc(S(=O)(=O)NCc2ccc(F)cc2)ccc1-n1cnnn1,-3.0%
COc1ccc(C(C)NC(=O)c2ccccc2)cc1 (stereo not given),-13.7%
C=CCN1C(=O)C2C(C(=O)NC3CCCC3)C3C=CC2(O3)C1C(=O)NC1CCCC1 (stereo not given),-2.7%
COc1ccc(OC)c(NC(=O)COc2coc(CN3CCc4ccccc43)cc2=O)c1,17.7%
CC(C)C(=O)N(Cc1ccccc1)c1ccccn1,-4.4%
O=C(CCc1nnc2n(Cc3ccc(Cl)cc3)c(=O)c3ccccc3n12)NCCN1CCCC1,-2.3%
CCCCC1CC1C(=O)Nc1ccc(OC)c(OC)c1 (stereo not given),-17.1%
O=C1CC(c2ccccc2)CN1C(=O)c1ccccc1 (stereo not given),-1.4%
C=CCN(c1cccc(C(F)(F)F)c1)S(=O)(=O)c1cccc(C(=O)OCC(=O)Nc2ccccc2)c1,-10.9%
Cc1cc(OC(=O)c2cc(Cl)nc3ccccc23)ccc1Cl,4.0%
CC(C)CCNC(=O)c1ccc(-n2cnc3cccnc32)cc1,-9.9%
CCOC(=O)Nc1c2ccccc2nc2ccccc12,-18.3%
S=c1[nH]nc(-c2cccs2)n1/N=C/c1cccs1,-12.1%
CCOc1ccc(N(Cc2ccccc2)C(=O)c2nc(SC)ncc2Cl)cc1,2.7%
COc1ccc(-c2nc3scc(-c4ccccc4)n3n2)cc1,-6.6%
Cc1ccc(NS(=O)(=O)c2ccc3c(c2)NC(=O)CO3)cc1C,5.7%
O=[N+]([O-])c1cccc(CSc2nc3ccccc3[nH]2)c1,-6.7%
Cc1c(N(C)S(=O)(=O)c2ccc(Cl)c(C(=O)N3CCC(C(N)=O)CC3)c2)c(=O)n(-c2ccccc2)n1C,11.3%
Cc1cccc(N(CC(=O)NC(C)(C)C)C(=O)CNC(=O)c2cccs2)c1C,-3.4%
O=C(Nc1ccc(C(F)(F)F)cc1)c1ccc2ncsc2c1,?
O=C(Cn1c(=O)n(CC2CCCO2)c(=O)c2ccccc21)N1CCN(c2ccccc2)CC1 (stereo not given),13.5%
Cc1cc(C)cc(C(=O)O/N=C(\N)c2ccc(Br)cc2)c1,?
S=C1SCN(Cc2ccccn2)CN1Cc1ccco1,?
O=C(O)c1cn(-c2ccccc2)nc1-c1ccc(Cl)cc1,-4.9%
CCOC(=O)Cn1c(C)cc(=O)c2ccccc21,5.4%
O=C(COc1ccccc1[N+](=O)[O-])Nc1ccc(Br)cc1,21.9%
C=CCCN([C@@H](C)C(=O)OC)S(=O)(=O)c1ccccc1Br,-3.5%
CC(C)CC(c1nnnn1Cc1ccc(F)cc1)N1CCC(C(N)=O)CC1 (stereo not given),-6.6%
CC(C)Oc1ccc(CNC(=O)c2ccc3c(c2)N(Cc2ccc(F)cc2)CCS3)cc1,1.1%
COc1ccc(C(=O)N2CCCC(Nc3ccc(F)cc3)C2)cc1F (stereo not given),-6.1%
COc1ccc2c(Sc3ccccc3)c(C(=O)NCCc3ccc(Cl)cc3)[nH]c2c1,4.2%
CCOC(=O)c1c(C)[nH]c(C(=O)COC(=O)c2cnccn2)c1C,-0.1%
Cc1cccc(COc2ccccc2C(=O)N(C)CC(=O)Nc2cccc(F)c2)c1,7.1%
COc1ccc(F)cc1Cn1nc(C(=O)O)c2ccccc2c1=O,-2.3%
O=C(NC1CCCCC1)C(c1ccncc1)N(C(=O)c1csnn1)c1ccccc1F (stereo not given),-1.7%

Only part of the results is shown; rates above refer to the full screens.
